MLL AF4-AF9 inh: MLL-AF4/AF9 protein interaction inhibition; inhibition, % at 10 µM; P42568; AID 651704; 350,000 compounds, 0.47% hits; AlphaScreen, biotin-AF4 peptide binding to FLAG-AF9;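 active = every replicate reaching a set inhibition limit, whatever the replicate mean, cut at about 25% in these data; inconclusive = mean inhibition reaches that limit but some replicates miss it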;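 note: 0% = plate neutral control median and 100% = total signal loss; the record names both 10 and 1 µM as test concentration; the first replicate is given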
Target sequence (P42568 whole entry, looked up): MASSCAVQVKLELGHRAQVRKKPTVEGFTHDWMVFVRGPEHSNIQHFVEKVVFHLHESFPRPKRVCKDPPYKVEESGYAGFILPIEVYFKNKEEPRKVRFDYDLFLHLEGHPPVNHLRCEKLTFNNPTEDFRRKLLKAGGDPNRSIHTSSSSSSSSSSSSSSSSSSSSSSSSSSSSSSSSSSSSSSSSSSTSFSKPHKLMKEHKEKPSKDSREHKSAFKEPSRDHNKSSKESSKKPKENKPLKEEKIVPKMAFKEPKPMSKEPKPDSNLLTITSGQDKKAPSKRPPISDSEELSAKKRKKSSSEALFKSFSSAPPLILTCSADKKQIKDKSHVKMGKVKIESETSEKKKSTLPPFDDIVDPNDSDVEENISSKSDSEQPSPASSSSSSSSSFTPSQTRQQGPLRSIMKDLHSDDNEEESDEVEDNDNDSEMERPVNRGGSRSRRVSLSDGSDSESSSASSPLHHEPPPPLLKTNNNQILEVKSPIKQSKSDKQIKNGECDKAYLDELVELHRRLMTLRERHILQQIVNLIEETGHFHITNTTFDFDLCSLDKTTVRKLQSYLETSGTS
FGF22 binding: binders of recombinant human FGF22 by thermal shift. Q9HCT0. SYPRO orange fluorescence; percent of sucrose octasulfate shift, DMSO zero. calls only at 9.99 µM. 340,000 compounds, 1.5% hits. AID 651658;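 active = melting point raised past a set limit in the mean and every replicate; inconclusive = no clear call; three in four hits are not shown here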
Target sequence (Q9HCT0 whole entry, looked up): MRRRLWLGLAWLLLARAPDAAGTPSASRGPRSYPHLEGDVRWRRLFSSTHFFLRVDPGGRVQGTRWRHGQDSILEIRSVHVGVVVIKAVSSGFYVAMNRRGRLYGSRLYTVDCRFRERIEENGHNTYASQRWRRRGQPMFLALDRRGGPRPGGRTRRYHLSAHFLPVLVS
Beta cell apopt: beta cell apoptosis inhibition; INS-1E cytokine-induced death, ATP luminescence, 48 h; percent of positive-control rescue, neutral wells zero; protection from apoptosis, % (concentration not given with the values); 300,000 compounds, 0.8% hits; AID 435005;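 active = all replicates at 75% or more, or half of them and the mean; inconclusive = half reach 75% but not the mean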;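 note: 0% = cytokine-treated negative control wells and 100% = positive control rescue; higher means more ATP so stronger rescue from cytokine killing; wells of about 40 µL received 100 nL stock; the first replicate is given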
T cruzi inh: T. cruzi replication inhibition | 300,000 compounds, 1.4% hits | inhibition, % (test concentration not listed) | AID 1885 | T. cruzi beta-gal in NIH3T3, luminescence, 90 h;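 active = mean inhibition across valid replicates above about 55%, limit read from the data; inconclusive = mean below that limit but half or more replicates reach it; inactive = mean below it, under half of replicates reach it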;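 note: signal also drops with host cell toxicity which is not excluded here; 0% = plate median of DMSO wells and 100% = zero luminescence signal; higher percent means less beta-gal luminescence so fewer parasites; stock transfer was 50 nL into about 50 µL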
RanGTP-Imp inh: disruptors of Ran-importin-beta complex formation – biochemical, FRET, CFP-Ran, YFP-importin-beta, homogeneous, primary screen; cell-free CFP-Ran/YFP-importin-beta FRET ratio; AID 2216; inhibition, % (no concentration beside the values); 300,000 compounds, 1.1% hits;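 active = most replicates above 15%; inconclusive = exactly half above 15%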;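 note: 0% = DMSO wells and 100% = Ran loaded with GDP instead of GTP; wells of about 40 µL received 100 nL stock; the first replicate is given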
Calb FLC: C. albicans growth modulation with fluconazole. C. albicans CaCi-2 (fluconazole-resistant clinical isolate) + fluconazole, Alamar Blue growth, 48 h. growth inhibition, % (concentration not given with the values). 300,000 compounds, 0.57% hits;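 active = most replicates above 75%; inconclusive = exactly half above 75%; inactive = most below 75%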;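 note: all wells also contain fluconazole at 8 µg/ml as a sub-toxic cotreatment; 0% = median of DMSO wells and 100% = median of geldanamycin control wells; wells of about 8 µL received 7.5 nL stock; the first replicate is given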
rRNA inh HTS: inhibits bacterial ribosomal RNA function over humanized ribosomes. 350,000 compounds, 1.6% hits. AID 720706. E. coli WT GFP vs humanized-ribosome RFP mutants, fluorescence, 24 h; hits give low values; DMSO median 0, no signal -100. GFP signal change (wild-type ribosome), % (test concentration not listed);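 active = significant combined selectivity score with lowered wild-type GFP, culture density cut under 30%, mutant RFP and density less affected; inactive = any of these conditions unmet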; note: one replicate is shown; some compounds called inactive have numbers as strong as hits
ALR H2O2 inh: human ALR oxidase inhibition via reduced H2O2; inhibition, % (no concentration beside the values); purified ALR, DTT oxidation, H2O2 HRP-luminol luminescence; 290,000 compounds, 3.8% hits;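 active = mean and each replicate at 75% or more; inconclusive = only one of the two met; inactive = neither met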;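 note: stock transfer was 7.5 nL into about 7.5 µL; 0% = neutral wells and 100% = wells with inactivated enzyme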
Target sequence (P55789 whole entry, looked up): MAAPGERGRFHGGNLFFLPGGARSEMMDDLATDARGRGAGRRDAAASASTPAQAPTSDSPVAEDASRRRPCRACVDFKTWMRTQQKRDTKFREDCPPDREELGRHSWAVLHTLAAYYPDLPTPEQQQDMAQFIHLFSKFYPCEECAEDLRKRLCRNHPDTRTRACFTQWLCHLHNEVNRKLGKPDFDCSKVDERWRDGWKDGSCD
rRNA inh HTS OD600: further read-out of rRNA inh HTS, marked with its call; OD600 change, %; measured here: OD600 growth;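 optical density of the mix in the first replicate; 0 = DMSO median and -100 = no signal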
rRNA inh HTS RFP: second read-out of rRNA inh HTS, no call of its own (marks repeat the call); RFP signal change, %; measured here: RFP humanized mutant strains;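 first replicate; 0 = DMSO median and -100 = no signal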
* = called active by the depositor; i = inactive; ? = inconclusive; · = no result given; & = joins results of further samples. Not all compounds are listed; rates above refer to the full screens.

SMILES | MLL AF4-AF9 inh | FGF22 binding | Beta cell apopt | T cruzi inh | RanGTP-Imp inh | Calb FLC | rRNA inh HTS | rRNA inh HTS OD600 | rRNA inh HTS RFP | ALR H2O2 inh
COC(=O)c1ccccc1OCCCOc1ccc(C=O)cc1OC | · | · | -12 | -9 | 0.0 | -15 | · | · | · | -5
O=C(NCCc1cccs1)c1cccs1 | -0.4 | i | -3 | -12 | 0.4 | 9 | -1 | -1 | 0.2 | 0
O=C(Nc1cccc(C(F)(F)F)c1)c1cc(-c2ccco2)on1 | -0.3 | i | 0 | -5 | -3.6 | -5 | -7 | 8 | 1.0 | ·
C[n+]1cnc(-c2ccccc2)cc1-c1ccccc1 | · | · | -3 | 7 | ? | -11 | · | · | · | -8
CCCn1nc(C(=O)NCc2ccccn2)c2ccccc2c1=O | · | · | -5 | 10 | 2.4 | 6 | -6 | 4 | -6.6 | 0
Clc1ccc2[nH]c3c(N4CCC5(CC4)OCCO5)ncnc3c2c1 | · | · | 61 | -4 | 0.5 | 40 | · | · | · | ·
COc1ccc(NC(=O)COC(=O)c2ccc(Cl)c(S(N)(=O)=O)c2)c([N+](=O)[O-])c1 | -5.1 | i | -5 | 12 | -1.8 | -3 | -4 | -9 | 0.0 | -16
CC(=O)c1ccc(NC(=O)C2CCCN(c3ncnc4c3nc3n4CCCCC3)C2)cc1 (stereo not drawn) | 0.4 | i | 5 | 0 | 0.2 | -7 | -26 | -24 | -2.9 | -5
O=C1[C@@H]2Cc3c([nH]c4ccccc34)C(c3cccc([N+](=O)[O-])c3)N2C(=O)CN1C1CCN(Cc2ccccc2)CC1 (stereo partly drawn) | 14 | i | 5 | 71* | 3.2 | 18 | -22 | -44 | 26 | -9
Cc1nc2ccccc2n1CCc1ccccc1 | 0.1 | i | -3 | -13 | -2.9 | 0 | -13 | -14 | 0.5 | -2
COc1ccccc1C1CCN(Cc2cccc([N+](=O)[O-])c2)CC1 | · | i | 1 | 0 | 1.7 | -9 | -24* | -4.8* | 3.2* | -4
O=C(CSc1nc2ccccc2o1)Nc1ccc(N2CCOCC2)cc1 | · | · | 0 | 5 | 2.7 | -7 | · | · | · | 24
COCc1ccc(CN2CCCC(CO)(Cc3ccccc3C)C2)o1 (stereo not drawn) | -0.8 | · | -4 | 8 | 23* | -9 | 7 | 8 | -2.3 | -6
O=C1NC(=O)/C(=C/c2ccccn2)S1 | -1.9 | i | -2 | 2 | -3.0 | 6 | -9 | 2 | 0.6 | 4
CN1CCN(C(=S)SCc2nc(N)nc(Nc3ccc(F)cc3)n2)CC1 | 6.6 | i | 0 | 28 | 1.0 | 6 | -16 | -6 | 4.5 | -4
Cc1cccnc1N1C(=O)c2ccc(C(=O)O)cc2C1=O | -4.5 | i | -7 | -7 | -3.0 | 12 | 12 | 8 | -6.9 | -4
COc1ccc(-c2nnc(NC(=O)CS(=O)(=O)c3ccc(Cl)cc3)o2)c(OC)c1 | 1.1 | i | -1 | -14 | 0.2 | 2 | -9 | -10 | -5.8 | 2
COc1ccc2nc(SCC(=O)N3CC(=O)Nc4ccccc43)c(C#N)cc2c1 | · | · | 5 | 5 | 1.5 | 19 | · | · | · | -3
CCN(CC)C(=O)CSc1nc2ccccc2c(=O)n1OC | · | · | 3 | -5 | 6.0 | · | · | · | · | -2
COCCn1c(SCC(=O)Nc2ccc(F)cc2)nc2c(oc3ccccc32)c1=O | -2.3 | i | 1 | 10 | -0.6 | -11 | -1 | 0 | -2.0 | ·
Cc1cc(-c2ccccc2)nc2[n+]1CCN2C | · | · | 0 | -8 | 6.3 | -35 | · | · | · | -1
Cc1ccc(S(=O)(=O)CCC(=O)OCn2nnc3ccccc3c2=O)cc1 | -1.7 | · | -2 | -3 | 1.4 | -19 | 8 | 4 | 0.3 | 9
CC1=NN(c2ccccc2)C(=O)/C1=C\c1ccc(Br)s1 | 3.3 | · | -16 | -1 | ? | 11 | 14 | 16 | 0.6 | 3
CCOc1ccc(NC(=O)CSc2nc(=O)n(CCN3CCOCC3)c3c2CCCC3)cc1 | -6.2 | i | 3 | 13 | 0.2 | -4 | 4 | 7 | 0.0 | -4
CCNS(=O)(=O)c1ccc(NC(=O)c2ccccc2SCCOC)cc1 | -1.0 | i | · | -9 | -0.9 | -13 | -6 | -6 | -0.5 | -1
CCOC(=O)c1ccc(NC(=O)c2cccc(S(=O)(=O)N3c4ccccc4CC3C)c2)s1 (stereo not drawn) | · | · | 36 | 50 | 0.0 | ? | · | · | · | -1
Cc1c(Cl)cnc(NC(=O)COC(=O)c2nn(C)c(=O)c3ccccc23)c1Cl | -0.8 | i | 2 | -1 | ? | -23 | 3 | 9 | 2.9 | -1
O=C(CSc1nnc(-c2cccs2)o1)N1CCCc2ccccc21 | · | · | -2 | 3 | -4.6 | 9 | · | · | · | 0
O=c1cc(-c2ccccc2)c2ccc(O)c(CN3CCCCC3)c2o1 | · | · | 2 | -1 | 0.6 | -8 | · | · | · | -4
Cc1ccc(CNC(=O)CCS(=O)(=O)c2ccc(C)cc2)cc1 | -2.2 | i | -1 | -5 | -3.8 | 1 | 4 | 2 | -6.8 | -7
COCCN(C(=S)Nc1ccccc1C)C(C)c1cccs1 (stereo not drawn) | 2.3 | i | · | -8 | 1.9 | -12 | 0 | 1 | 1.2 | 2
CC(CCc1ccccc1)NC(=O)C(=O)c1c[nH]c2ccccc12 (stereo not drawn) | -0.9 | i | · | 4 | -0.8 | -4 | -28 | -35 | -1.6 | -4
S=C1Nc2cc(Cl)ccc2Sc2ccccc21 | · | · | -3 | -19 | -0.9 | 5 | · | · | · | 43
O=C(COC(=O)CNC(=O)c1ccc2c(c1)OCO2)Nc1ncc(Cl)cc1Cl | -2.5 | i | -3 | 11 | -1.9 | 12 | -2 | -4 | 0.3 | 0
O=C(CSc1ccc(-c2ccccc2)nn1)N1CCOCC1 | 8.5 | i | 2 | · | -34 | -2 | 0 | -1 | -5.1 | -7
CCn1c(SCC(=O)N2c3ccccc3Sc3ccccc32)nc2c1c(=O)n(C)c(=O)n2C | · | · | 7 | 39 | -1.4 | 3 | · | · | · | -40
COc1ccc(CNC(=S)Nc2cccc(Cl)c2)cc1 | -1.3 | i | · | -18 | 1.0 | 2 | · | · | · | -3
CCOC(=O)C1CCN(C(=O)CS(=O)Cc2nc(-c3ccc(C)cc3)oc2C)CC1 (stereo not drawn) | -11 | i | 2 | -5 | 3.4 | 0 | -5 | -10 | -5.7 | 100*
Cc1cccc(Nc2ncnc3nc[nH]c23)c1C | 2.3 | i | -6 | -8 | 0.3 | 7 | 2 | -1 | -1.8 | ·
O=C(N1CCOCC1)N(CCN1CCOCC1)Cc1cccc(Cl)c1 | · | · | -1 | 1 | -2.7 | -6 | · | · | · | ·
O=C(Cc1cccs1)Nc1cccc(-c2nc3cc4ccccc4cc3[nH]2)c1 | -3.7 | i | 30 | 37 | -2.6 | 23 | -51 | -77 | -22 | 24
Cc1ccc(C(=O)N/C(=C/c2ccc(-c3cccc([N+](=O)[O-])c3)o2)C(=O)NC(C)C)cc1 | · | · | 5 | 20 | -3.2 | 24 | · | · | · | -5
O=C(NCCO)c1cccc(S(=O)(=O)N2CCCCC2)c1 | · | · | -2 | 1 | -3.0 | -15 | · | · | · | -2
Cc1c(Br)c([N+](=O)[O-])nn1CC(=O)NCc1cccnc1 | -35 | i | -3 | 37 | 1.8 | -10 | 15 | -2 | 1.2 | 38
CCNC(=S)NNC(=O)c1ccoc1C | · | · | -1 | -13 | -2.2 | -12 | · | · | · | 47
CC(Sc1nnc2c(n1)[nH]c1ccccc12)C(=O)N(C)C1CCCCC1 (stereo not drawn) | 4.1 | i | 100* | 3 | 1.5 | -2 | -13 | -26 | -0.3 | 1
CC(CNC(=O)CCCn1ncn2c(cc3occc32)c1=O)c1ccccc1 (stereo not drawn) | -0.3 | i | 1 | 1 | 1.1 | ? | -1 | 6 | 0.9 | 0
COCCN1CCN(C(=O)C2CCC(=O)N(CCc3ccc(Cl)cc3)C2)CC1 (stereo not drawn) | 0.2 | i | -4 | -2 | -1.3 | -6 | 4 | 15 | -3.6 | 0
Cc1cc(CNC(=O)Cn2cc([N+](=O)[O-])cn2)c2ccccc2n1 | 3.5 | i | 3 | -9 | 0.4 | 4 | 7 | -4 | 2.0 | -43
Cc1cc(C)c(C)c(S(=O)(=O)N2CCC(C(=O)NCC(c3ccccc3)N(C)C)CC2)c1C (stereo not drawn) | 4.9 | i | 3 | 1 | 2.4 | 2 | -13 | -26 | -1.7 | -19
CC1(C(=O)NC2CCCCC2)CCC(=O)N1Cc1cccs1 (stereo not drawn) | -7.3 | i | -1 | 4 | -0.4 | 0 | 11 | 10 | -0.2 | ·
CC1(C)Oc2ccc(C(=O)N3CCOCC3)cc2N(CC(=O)N2CCOCC2)C1=O | · | · | 4 | -10 | -1.6 | -5 | -4 | 5 | -1.4 | -17
O=C(c1ccc(Cl)cc1)c1c[nH]c(C(=O)NNc2ccccc2)c1 | -0.2 | i | 3 | 8 | 0.2 | ? | -4 | -2 | -2.2 | -5
COc1ccc(C2C(C#N)=C(N)N(c3ccccc3)C3=C2C(=O)CCC3)cc1Cn1cc([N+](=O)[O-])cn1 (stereo not drawn) | · | · | -3 | 29 | 1.2 | 3 | · | · | · | -4
Cc1nn(CC(=O)N2CCC(C)CC2)c(=O)c2cccn12 | 1.9 | i | -9 | -5 | 1.0 | -4 | 4 | 6 | -1.8 | -6
COc1ccc(C2N(c3ccccc3)CCN2c2ccccc2)cc1O | 7.2 | i | 1 | 18 | 25* | 2 | 10 | 11 | 0.6 | 39
O=c1oc2ccccc2nc1/C=C(\O)c1ccc(Br)cc1 | · | · | -4 | -20 | -2.0 | 4 | · | · | · | -7
O=C1N(c2ccccc2)C[C@@H]2C[C@@H](c3cc4ccccc4o3)N3CCC[C@@]123 | 3.1 | · | · | 56* | 6.2 | -6 | 10 | 5 | 4.1 | ·
COc1ccc(Nc2nc(N3CCOCC3)nc(N3CCOCC3)n2)c(OC)c1 | 1.1 | i | -2 | 14 | -0.6 | -7 | 5 | 6 | -2.0 | -5
CCCCCCSc1ccc(-c2nc3cc(C)ccn3c2NC2CCCCC2)cc1 | 1.5&5.2 | i | 6 | · | · | · | 29 | 12 | 21 | -7
C=CCN1C(=O)CSc2ccc(C(=O)NCc3ccco3)cc21 | · | · | -2 | 3 | 1.7 | 14 | · | · | · | -1
O=[N+]([O-])c1cc(S(=O)(=O)N2CCCC2)ccc1OCc1ccccc1 | 3.2 | i | -6 | 9 | 0.0 | 12 | -18 | -11 | -1.2 | ·

Screening results from PubChem BioAssay.
